PrP 5UTR inh – inhibition of PrP 5' UTR reporter expression | cell-based PrP 5' UTR mRNA reporter, plate reader | inhibition, % (no concentration beside the values) | 340,000 tested, 0.35% active;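 active = every replicate at 50% or more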;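 note: 0 = median of the neutral control wells; tested in H4 reporter cells; numbers are from one replicate; inactives centre near -14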
Mtb hypoxia rep – inhibitors of hypoxia-regulated fluorescent reporter in Mycobacterium tuberculosis; M. tuberculosis hypoxia-regulated fluorescent reporter, fluorescence; fluorescence inhibition, % (no concentration beside the values); 300,000 tested, 0.1% active; AID 1159583;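 active = 35 to 45% if threefold the growth effect, above 45% if 1.5-fold the growth effect; inactive = the rest, general growth blockers included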;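 note: wells of about 50 µL received 100 nL stock; 0% = vehicle wells and 100% = reference inhibitor wells; whole bacteria with a GFP reporter of the hypoxia response; strong numbers were not always called active; many hits fall short of the cut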
BJeLR viability – BJeLR cell viability loss | AID 1554 | BJeLR (HRASV12) viability, CellTiter-Glo ATP luminescence, 48 h; reference of the scale not given here | 300,000 tested, 0.17% active | inhibition, % (test concentration not listed);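 active = replicate mean above 50%; inconclusive = above 50% but judged a plate artefact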;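 note: 50 nL library stock added to about 25 µL; numbers are from one replicate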
Sa RN4220 lethal – kills Staphylococcus aureus RN4220; inhibition, % (concentration not given with the values); S. aureus RN4220 growth, OD600, 16 h; 330,000 tested, 0.33% active;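 active = z-score of -3 or lower and OD600 up to 0.18 on both plates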;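 note: plate controls were untreated cells for no effect and reference antibiotic for full effect; stock transfer was 100 nL into about 80 µL; one replicate is shown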
ugtP null kill – growth inhibition of S. aureus ugtP deletion strain; S. aureus RN4220 ugtP deletion, OD600 growth, 16 h; some inactives read as strong as hits; growth inhibition, % (concentration not given with the values); 330,000 tested, 0.54% active;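 active = z-score under -3 and OD600 up to 0.15 on both plates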;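 note: plate controls were untreated wells for no effect and antibiotic for full effect; wells of about 80 µL received 100 nL stock; the first replicate is given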
Bead autofluor – counter-screen for toxin protease inhibitors: compound fluorescence; AID 624483; 360,000 tested, 3.1% active; fluorescence intensity (no concentration beside the values); compound autofluorescence counterscreen, microsphere flow cytometry; hits give high values;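 active = at least 3 SD above the mean of all compounds, about 16000 in these data; inconclusive = too few beads counted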;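 note: 100 nL of 1 mM stock went into each well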
Mtb hypoxia rep growth – further read-out of Mtb hypoxia rep, marked with its call; growth inhibition, %; measured here: M. tuberculosis growth (absorbance);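 0% = vehicle and 100% = reference antibiotic; read after six days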
* marks the source's active call; other numbers are inactive results; ? = inconclusive; . = not tested or not shown; & = joins results of further samples. This is a random part of the collection; overall some 4% were active at least once.

SMILES	PrP 5UTR inh	Mtb hypoxia rep	Mtb hypoxia rep growth	BJeLR viability	Sa RN4220 lethal	ugtP null kill	Bead autofluor
COc1ccc(C(=O)N2CCC(C(=O)NCc3ccccn3)CC2)cc1	-10	1	-10	-6	3.1	-2	2817
CN1CCN(c2c(F)cc([N+](=O)[O-])c(N)c2Br)CC1	-32	14	-1	4	-0.8	5	4202
C=CCNC(=S)NN=C(C)c1cc(OC)c(OC)c(OC)c1	.	15	8	.	6.7	15	.
O=C1N/C(=C\c2ccccc2)c2ccccc21	-37	-2	0	13	1.1	-21	16023
O=C(CCNC(=O)C1CCN(S(=O)(=O)c2ccc(F)cc2)CC1)NCc1cccc(Cl)c1	-30	4	4	-2	0.2	1	5049
CC(C)CN(CCCNC(=O)CN1C(=O)COc2ccc(S(=O)(=O)N3CCOCC3)cc21)CC(C)C	-13	1	-3	-7	2.7	2	6166
COc1ccc(C2C(C(N)=O)=C(C)Nc3nc(CCCO)nn32)cc1 (centres undefined)	-22	11	9	5	-2.1	20	3632
Cc1c(NC(=O)CSc2n[nH]c(-c3ccccc3)n2)c(=O)n(-c2ccccc2)n1C	-13	9	5	-12	4.8	2	8186
N#CCCN(Cc1cccnc1)C(=S)NC(=O)c1ccco1	-36	16	1	-1	3.6	4	4095
COCC(C)n1c(SCC(=O)NC(=O)Nc2ccc3c(c2)OCCO3)nc2ccccc2c1=O (centres undefined)	-23	2	5	-12	0.3	0	10336
CCOc1ccccc1CN1CCCC(C(=O)c2cc(F)ccc2F)C1 (centres undefined)	-16	9	0	-10	5.1	8	4903
CCOC(=O)c1c(NC(=O)CNCCOC)sc2c1CCCC2	-20	.	.	1	4.2	5	5218
Cc1cc(C)cc(NC(=O)c2cc(Cl)sc2Cl)c1	-27	9	23	-23	6.5	-5	4036
N=c1ccn(Cc2c(Cl)cccc2Cl)cc1	-9	16	12	8	2.9	10	4177
CN(CC(=O)NCCc1ccccc1)CC(=O)Nc1cccc(F)c1	-8	5	5	.	3.5	2	3730
Cc1ccc(C2(C)NC(=O)N(CC(=O)N3CCN(S(=O)(=O)c4cccc([N+](=O)[O-])c4)CC3)C2=O)cc1 (centres undefined)	-15	7	1	.	2.1	2	3138
C/C(=N/NC(=O)CSCc1ccc(Cl)cc1)c1cccc(NC(=O)c2ccccc2)c1	-5	.	.	-6	.	.	9636
CC(C)(C)c1ccc(S(=O)(=O)N2CCCCC2)cc1	-5	5	-4	-1	8.2	3	2429
O=C(CN1CCCCC1)Nc1ccc(S(=O)(=O)c2ccc(NC(=O)CN3CCCCC3)cc2)cc1	-80	5	20	.	1.1	-1	3962
CCOc1cc(CNCCO)cc(Br)c1OCc1ccccc1Cl	-25	.	.	13	-10	-37	2667

4 entries from above, with two lines to a compound:
Each structure is followed by: PrP 5UTR inh	Mtb hypoxia rep	Mtb hypoxia rep growth	BJeLR viability	Sa RN4220 lethal	ugtP null kill	Bead autofluor
> COCC(C)n1c(SCC(=O)NC(=O)Nc2ccc3c(c2)OCCO3)nc2ccccc2c1=O (centres undefined)
→ -23	2	5	-12	0.3	0	10336
> Cc1cc(C)cc(NC(=O)c2cc(Cl)sc2Cl)c1
→ -27	9	23	-23	6.5	-5	4036
> O=C(CCNC(=O)C1CCN(S(=O)(=O)c2ccc(F)cc2)CC1)NCc1cccc(Cl)c1
→ -30	4	4	-2	0.2	1	5049
> CCOC(=O)c1c(NC(=O)CNCCOC)sc2c1CCCC2
→ -20	.	.	1	4.2	5	5218

Next section
SMILES	PrP 5UTR inh	Mtb hypoxia rep	Mtb hypoxia rep growth	BJeLR viability	Sa RN4220 lethal	ugtP null kill	Bead autofluor
CCC(=O)N(Cc1cc2cc(OC)ccc2[nH]c1=O)c1cc(C)ccc1C	-24	-1	-3	-3	0.5	-6	3919
COc1ccc(NS(=O)(=O)c2cccc(C(=O)NCc3ccccc3CN3CCOCC3)c2)cc1	-30	-7	11	.	0.5	-2	4073
Cc1nc(Cc2nnc(SCC(=O)N3CCN(c4ccc(F)cc4)CC3)o2)cs1	-19	13	2	.	4.3	0	7436
CCOc1cc(Br)c(C=O)cc1OCC	-11	-8	4	14	-0.2	-8	4473
O=C(CSc1ncc(C(F)(F)F)cc1Cl)N1CCN(S(=O)(=O)c2ccc(Cl)cc2)CC1	-6	-1	0	-14	1.8	-6	4177
S=c1[nH]nc(-c2cnccn2)n1-c1ccccc1	10	10	10	-2	1.2	-4	3416
N#C/C(=C\c1ccccc1)c1nc2ncccc2[nH]1	-30	.	.	-4	4.6	-8	3028
CC(=O)c1cc(-c2ccc(F)cc2)n(CCC(=O)Nc2cc(C)[nH]n2)c1C	-6	.	.	-8	4.0	-4	3645
CC(=O)N1c2c(cc(Br)cc2S(=O)(=O)N2CCCCC2)CC1C (centres undefined)	-11	-3	4	-3	6.2	4	5399
O=C1c2cccc3c([N+](=O)[O-])ccc(c23)C(=O)N1c1ccc(Cl)cn1	-13	-3	17	33	0.2	15	20167*
COc1ccc(CNC(=O)CNC(=O)N2CC(=O)Nc3ccccc32)cc1	5	-2	6	-10	0.6	4	4628
COc1ccc(OC)c(C(=O)c2ccc(Cl)cc2)c1	-48	-1	-2	-2	6.7	8	5759
O=S1(=O)CCOCCCN1Cc1ccccc1F	-14	4	9	-6	5.3	4	2885
CNC(=S)NNc1nc(-c2ccccc2)c2cc(Cl)ccc2n1	-22	15	5	-13	-2.3	6	4199
Cc1cccc(Cn2c(C)nc3ccc([N+](=O)[O-])cc3c2=O)c1	-2	15	13	0	6.2	2	3710
CCc1ccc(C2c3[nH]c4ccccc4c3CCN2C(=O)c2cc(C)nn2C)cc1 (centres undefined)	-19	-5	1	-5	-1.7	-15	2138
O=C(NCCc1c[nH]c2ccccc12)c1cc(Cl)c2c(c1)OCO2	-44	5	0	-10	4.8	11	6083
O=C(O)CCCN=C1NC2(CCCC2)Cc2ccccc21	-50	.	.	-14	-1.2	1	2445
COc1ccc(NC2CC(=O)N(c3cccc([N+](=O)[O-])c3)C2=O)cc1 (centres undefined)	-22	-4	7	-7	4.9	3	3937
Cc1csc(SCC(=O)N(C)CC(=O)Nc2ccccc2Cl)n1	-23	9	14	9	1.2	1	?
C(=NNc1cc(N2CCCCC2)ncn1)c1ccco1	.	12	12	.	-1.5	-2	.
COc1ccc(CC(=O)OC(C)C(=O)Nc2c(C)n(C)n(-c3ccccc3)c2=O)cc1OC (centres undefined)	.	3	6	.	2.4	5	5126
c1ccc2c(N3CCCCC3)nc(N3CCOCC3)nc2c1	-34	9	5	1	2.3	5	3464
Cc1ccc(NC(=O)CCl)c(C)c1	-14	18	12	18	-1.4	-6	4269
O=C(c1cc(-c2cccnc2)nc2ccccc12)N1CCC2(CC1)OCCO2	-9	-3	6	-3	0.5	0	19594*
O=C(Nc1ccccn1)c1ccc(S(=O)(=O)c2ccc(Cl)cc2)cc1	-21	1	9	5	5.0	21	3543
CCN(CC)C(=O)C1CCCN(c2ccc([N+](=O)[O-])cc2[N+](=O)[O-])C1 (centres undefined)	70*	-1	0	0	7.2	10	4316
CCn1c2ccccc2c2cc(NC(=O)C/C(C)=N/NC(=O)c3ccccc3N)ccc21	-3	.	.	-12	.	.	23105*
COc1ccc(CN2CCNC(=O)C2CC(=O)N(C)Cc2ccccn2)cc1OC (centres undefined)	-3	0	-1	-8	-5.8	-4	1994
CCCn1nc(NC(=O)CC(C)C)c2cc3cccc(C)c3nc21	4	.	.	-5	.	.	3360
CC(=O)Nc1ccc(NC(=O)c2ccc(-n3c(C)ccc3C)cc2)cc1	-6	4	4	7	2.5	4	2795
CC[C@H](C)[C@@H](CNC)NC[C@@H](Cc1ccc(O)cc1)NCC(C)(C)C	-8	.	.	11	.	.	3963
COc1ccc(C(=O)NCCNc2ccc([N+](=O)[O-])cc2)cc1	-18	3	9	-6	0.6	-14	3853
CCOC1OC(C(=O)Nc2ccccc2)=CC(c2csc3ccccc23)C1CCCO (centres undefined)	.	-4&2	6&5	.	0.2&5.3	21&-6	.
CC(C(=O)Nc1ccc(S(=O)(=O)N2CCOCC2)cc1)N1CCN(c2ccccn2)CC1 (centres undefined)	-19	-7	-10	9	2.7	-9	3423
COc1ccc(C2OCC(C)(C)CO2)cc1OC	-18	8	3	.	4.8	5	4255
COc1ccc(C(=O)NC(=S)NC2CCSC2=O)cc1 (centres undefined)	-25	.	.	1	.	.	2596
CSc1nc(Cl)c(Br)c(N2CC2)n1	-10	11	6	.	3.3	5	3413
COc1ccc2cc(CN(CC3COCCO3)S(=O)(=O)c3ccc(Cl)cc3)c(=O)[nH]c2c1 (centres undefined)	-5	.	.	4	-0.3	5	5849
N#Cc1ccccc1OCCCNC1CCCC1	-1	-2	7	4	4.2	4	2565
CCCCN1C(C(=O)Nc2ncccn2)=C(O)c2ccccc2S1(=O)=O	9	0	-7	-13	2.8	4	3827
O=C(CN1C(=O)NC2(CCCCCC2)C1=O)Nc1ccc2c(c1)CCC2	-26	.	.	2	.	.	4075
Cc1onc(-c2ccccc2Cl)c1C(=O)Nc1nnc(-c2ccc(Cl)cc2Cl)s1	-3	11	9	-4	-12	-1	6580
CCC(CO)Oc1cc(NC(=O)Cc2ccccc2)c2ncn(C(C)C)c2c1 (centres undefined)	-7	2	6	.	5.4	1	3496
S=c1[nH]nc(-c2cccnc2)n1/N=C/c1ccco1	-29	.	.	1	.	.	2863
Cc1no[n+]([O-])c1COc1cccc(/C=N/Nc2nncn2N)c1	-19	.	.	-2	.	.	3628
Cc1ccc(CNc2ncnc3[nH]ncc23)cc1	-16	14	7	.	7.9	-3	3714
NC(=O)c1nsc(C(=O)N(CC(=O)NCc2ccc3c(c2)OCO3)C2CCCC2)c1N	76*	.	.	5	-1.1	-1	2804
O=[N+]([O-])/C=C1\CCCCCN1	-3	0	-3	-2	3.2	3	4015
CC1=NN(c2ccc(C(=O)OC(C)C)cc2)C(=O)/C1=C\C=C\c1ccco1	-14	-1	3	7	-5.9	-7	19581*
C/C(=N/O)c1c(O)c(C)c(-c2ccccc2)n(-c2ccccc2)c1=O	-29	.	.	-1	.	.	2016
CCN(C(=O)Cn1cnc2c1c(=O)n(C)c(=O)n2C)C1CCCCC1	12	5	1	.	2.5	5	6180
CCOc1ncccc1C(=O)N(CC)CC(=O)Nc1ccc(NC(C)=O)cc1	-68	19	4	-16	4.0	3	2446
CN1CCc2c(sc(N)c2C(=O)c2ccc(Cl)cc2)C1	-27	8	7	1	-11	2	8061
CC(=NNC(=O)c1cc2ccccc2cc1O)C1C(=O)c2ccccc2C1=O	.	14	4	.	22	-5	.
COc1ccc(C2=NN(C(=O)CSc3ncccn3)C(c3ccc(C)cc3)C2)cc1 (centres undefined)	7	1	-2	-21	0.4	2	3090
Cc1nc(CC(C)C)cc(C(=O)N2CCCC(Nc3ccc(C)c(C)c3)C2)n1 (centres undefined)	-7	4	5	-3	3.5	4	6441
O=C1CCC(C(=O)Nc2cccc(Oc3ccccc3)c2)=NN1	-30	3	12	5	4.9	-1	4548
Cc1cccc(OCC(=O)N(Cc2ccco2)c2c(N)n(Cc3ccccc3)c(=O)[nH]c2=O)c1	-19	4	3	.	5.6	3	2997
c1ccc(CO/N=C(\c2ccc(C3CC3)nc2)C2CC2)cc1	-22	.	.	2	.	.	3244

Continued:
SMILES	PrP 5UTR inh	Mtb hypoxia rep	Mtb hypoxia rep growth	BJeLR viability	Sa RN4220 lethal	ugtP null kill	Bead autofluor
CS(=O)(=O)c1ccc(Cl)c(NC(=O)COC(=O)C23CC4CC(CC(C4)C2)C3)c1	-2	7	11	.	1.5	-1	7601
Nc1n[nH]c(-c2ccc(Br)cc2)c1Cl	6	14	7	5	-1.4	-10	3394
CCOc1cc(C2NC(=O)CCC2[N+](=O)[O-])cc(Br)c1OCC (centres undefined)	-13	-18	5	-17	-0.1	-10	3763
COC(=O)c1ccc(COC(=O)CNC(=O)CNC(=O)c2ccc(OC)cc2)cc1	-6	14	10	-10	6.2	5	.
CCCCN1C2CCCC1CC(NC(=O)c1cccc(OC)c1)C2 (centres undefined)	-32	11	-6	-1	1.7	6	.
COc1cc(NC(=O)COc2ccc(F)cc2)nc(OC)n1	-23	2	-6	-7	5.7	4	9667
CCCn1c(=O)n(C)c(=O)c2c(SC(C)C(=O)NCC3CCCO3)nc(CC(C)C)nc21 (centres undefined)	-8	-6	-4	8	-1.8	-7	5514
Cc1ccc(NS(=O)(=O)c2ccc3c(c2)N(C)CCO3)cc1	-20	.	.	7	.	.	5547
CN(C(=O)c1ccc2nccnc2c1)C1CCCCC1	-14	7	11	4	3.3	8	5768
